VDR inh: Inhibitors of the vitamin D receptor (VDR): qHTS; AID 504847, 2011; VDR-SRC2-3 peptide fluorescence polarization, 2 h; Potency, µM, without a hit: max response, negative = inhibition, most hits filed as inhibitors; 400,000 tested, 0.93% active; Vitamin D3 receptor (Homo sapiens), P11473; active = well fitted inhibition curve with a large enough effect; inconclusive = small, poorly fitted or top-dose-only effect, or another doubt; inactive = no such curve, though single readings can be large or run the other way; also: series mostly up to about 120 µM
Target sequence (P11473 whole entry, looked up): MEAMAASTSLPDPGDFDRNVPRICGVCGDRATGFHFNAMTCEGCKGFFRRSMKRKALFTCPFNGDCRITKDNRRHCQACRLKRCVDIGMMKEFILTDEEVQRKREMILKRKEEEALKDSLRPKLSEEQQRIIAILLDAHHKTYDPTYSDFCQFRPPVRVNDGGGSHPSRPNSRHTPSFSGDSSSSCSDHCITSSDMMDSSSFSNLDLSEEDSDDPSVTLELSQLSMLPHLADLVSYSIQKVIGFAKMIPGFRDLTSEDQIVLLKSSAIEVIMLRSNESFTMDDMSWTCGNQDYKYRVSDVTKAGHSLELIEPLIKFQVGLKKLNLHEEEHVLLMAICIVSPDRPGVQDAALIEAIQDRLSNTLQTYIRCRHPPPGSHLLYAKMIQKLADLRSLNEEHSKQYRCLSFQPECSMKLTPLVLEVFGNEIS
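After 23 nl compound addition and a short centrifugation, plates sat for 2 hours at ambient temperature; polarization of fluorescence then indicated loss of VDR binding to peptide SRC2-3.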
* hit, by the source's call; ? = inconclusive. % is scaled to controls: 0 for no effect and ±100 for the full control effect; potency is read from the fitted curve at half-maximal effect. An excerpt. The share of hits here may be higher or lower than overall.

SMILES	VDR inh
COc1ccc2c(c1)-c1nc(/N=C/c3c(O)ccc4ccccc34)sc1CC2	-23%
CCN(CC(=O)Nc1c(F)cccc1F)C(=O)CNC(=O)c1ccc(Br)o1	6%
Cc1c(C(=O)CN2CCCC(C)(C)C2)c2ccccc2n1C	-16%
COc1ccc(CCC(=O)NCc2ccco2)cc1	-10%
CN(c1ccccc1C(=O)N1CCN(c2ccccc2F)CC1)S(=O)(=O)c1ccccc1	1%
Cc1nc2cc(NC(=O)N3CCC(c4ccccc4)C3)ccc2n1C (stereo not drawn)	0%
N#Cc1ccc(-c2ccc(F)cc2)nc1Sc1ccccc1	9%
C/C(=N\OCC(=O)Nc1c(C)cc(C)cc1C)c1ccc2c(c1)OCCO2	-3%
Cc1nc(SCC(=O)NC(C)(C#N)C2CC2)c2c(-c3cccs3)csc2n1 (stereo not drawn)	-10%
COc1cccc(CNC(=O)CN(C)S(=O)(=O)c2ccc(Br)s2)c1	-11%
Cc1ccc(C(=O)OCC(=O)NC2CC2)s1	-14%
COc1ccc(N2CCN(C(=O)CNC(=O)c3ccc(Br)o3)CC2)cc1	-15%
Cc1nn(-c2ccccc2)c(Cl)c1C(=O)N(C)CC(=O)Nc1cccc(F)c1	-2%
O=[N+]([O-])c1ccc(-c2nc(NCC3CCCO3)c3ccccc3n2)cc1 (stereo not drawn)	10%
COCCNc1ccnc2c(Cl)cccc12	-5%

Reprinted from the results shown, 15 compounds:
SMILES	VDR inh
COc1ccc2c(c1)-c1nc(/N=C/c3c(O)ccc4ccccc34)sc1CC2	-23%
CCN(CC(=O)Nc1c(F)cccc1F)C(=O)CNC(=O)c1ccc(Br)o1	6%
Cc1c(C(=O)CN2CCCC(C)(C)C2)c2ccccc2n1C	-16%
COc1ccc(CCC(=O)NCc2ccco2)cc1	-10%
CN(c1ccccc1C(=O)N1CCN(c2ccccc2F)CC1)S(=O)(=O)c1ccccc1	1%
Cc1nc2cc(NC(=O)N3CCC(c4ccccc4)C3)ccc2n1C (stereo not drawn)	0%
N#Cc1ccc(-c2ccc(F)cc2)nc1Sc1ccccc1	9%
C/C(=N\OCC(=O)Nc1c(C)cc(C)cc1C)c1ccc2c(c1)OCCO2	-3%
Cc1nc(SCC(=O)NC(C)(C#N)C2CC2)c2c(-c3cccs3)csc2n1 (stereo not drawn)	-10%
COc1cccc(CNC(=O)CN(C)S(=O)(=O)c2ccc(Br)s2)c1	-11%
Cc1ccc(C(=O)OCC(=O)NC2CC2)s1	-14%
COc1ccc(N2CCN(C(=O)CNC(=O)c3ccc(Br)o3)CC2)cc1	-15%
Cc1nn(-c2ccccc2)c(Cl)c1C(=O)N(C)CC(=O)Nc1cccc(F)c1	-2%
O=[N+]([O-])c1ccc(-c2nc(NCC3CCCO3)c3ccccc3n2)cc1 (stereo not drawn)	10%
COCCNc1ccnc2c(Cl)cccc12	-5%

(listing goes on)
SMILES	VDR inh
Cc1nn(CCc2nn[nH]n2)c2nc(C(F)(F)F)cc(C(F)(F)F)c12	-18%
CCc1ccc(CN(C)CC(=O)Nc2ccc3c(c2)CCC3)cc1	-7%
CCOC(=O)c1sc(NC(=O)c2c(C)nn(Cc3ccccc3)c2C)cc1C	11%
COc1ccc(CNCC(=O)Nc2cc(OC)cc(OC)c2)cc1	-1%
C/C(CC(=O)Nc1cccc(Cl)c1Cl)=N\NC(=O)c1ccccc1Br	?
CCOC(=O)C1=C(CS(=O)(=O)c2ccc(C)cc2)NC(=O)NC1c1cc(OC)c(OC)c(OC)c1 (stereo not drawn)	-10%
O=C(COC(=O)c1cc(=O)[nH]c2ccccc12)NC1CCCC1	6%
O=C(COC(=O)C1(c2ccccc2F)CCCC1)N1CCOCC1	6%
CCCCN(C)Cc1c(O)ccc2c(-c3ccccc3)cc(=O)oc12	-4%
O=[N+]([O-])c1ccc2nonc2c1Nc1cccc(F)c1	0%
CCCCOC(=O)c1ccc(NC(=O)COC(=O)CSc2nc(C)cc(C)n2)cc1	-5%
COc1ccnc(N=CNOCc2ccc(C)cc2)c1C#N	-3%
CCn1cc(CN2CCCC(C(=O)Nc3cccc(-c4cc5ccccc5[nH]4)c3)C2)cn1 (stereo not drawn)	-6%
CCn1cnc2cc(NS(=O)(=O)c3ccc(OC)c(OC)c3)ccc21	1%
CCOC(=O)C(NC(=O)c1cccc(Cl)c1)(OCc1ccccc1)C(F)(F)F (stereo not drawn)	12%
NC(=O)c1ccc(NC(=O)CN2CCN(c3ccccc3)CC2)cc1	2%
COC(=O)C1=C(N)Oc2cc(C)n(CCc3ccccc3)c(=O)c2C1c1cccnc1 (stereo not drawn)	3%
COc1ccc2nc(C)cc(N3CCC(C(N)=O)CC3)c2c1	-9%
CN1C(=O)CC(P(=O)(c2ccccc2)c2ccccc2)N(C)C1=O (stereo not drawn)	-14%
O=C(Nc1ccc(Cl)c(C(F)(F)F)c1)C(=O)N1CCCCC1	?
COc1ccc(OC)c(Nc2cc(-c3ccccc3)nc(N)n2)c1	-13%
COc1cccc(-c2nnc(-c3ccco3)o2)c1	?
Cc1cc(C)cc(NC(=O)N2CCc3ccccc3C2)c1	13%
CCc1cc(C(=O)Cc2ccccn2)c(O)cc1O	-8%
CCOc1ccc(/C=C/C(=O)Nc2ccc(C(N)=O)cc2)cc1OC	-2%
O=S(=O)(c1ccc(Oc2ccccc2)cc1)N1CCOCC1	-10%
COc1ccc(S(=O)(=O)Nc2cc(C)c(O)cc2C(C)C)cc1	-6%
O=c1[nH]c(=O)n(Cc2ccco2)c2c1C(C(F)(F)F)(C(F)(F)F)N=C(Cc1ccccc1)N2	2%
CCOC(=O)c1ccc(NC(=O)C2CC3CCC2C3)cc1 (stereo not drawn)	-20%
COc1ccccc1-c1cc(C(=O)NC(C)c2ccccc2)no1 (stereo not drawn)	-15%
CCCCn1c(N)c(N(CC)C(=O)COc2ccc(C#N)cc2)c(=O)[nH]c1=O	7%
Cc1ccc(OCc2cc(C(=O)N3CCc4sccc4C3)no2)cc1C	4%
CCCCn1c(N)c(N(CCOC)C(=O)CN2c3ccccc3CC2C)c(=O)[nH]c1=O (stereo not drawn)	-12%
COc1c(C2=CC(=O)N(C)C2=O)c2c(n1C)C(=O)c1ccccc1C2=O	13µM*
COc1ccccc1NC(=O)C1=C(C)NC(=O)NC1c1cccc(OC)c1OC (stereo not drawn)	-3%
COc1ccc(C(c2nnnn2C2CCCC2)N2CCC(C)CC2)c(OC)c1 (stereo not drawn)	-10%
Cn1nnnc1SCCNCc1ccccc1Cl	0%
CC(C(=O)Nc1ccccc1)n1nnc2sc3c(c2c1=O)CCCC3 (stereo not drawn)	8%
O=C(CN(Cc1ccccc1)S(=O)(=O)c1ccccc1)N/N=C/c1ccccc1[N+](=O)[O-]	-11%
O=C(NCC1CCCO1)c1c(O)nc2sccn2c1=O (stereo not drawn)	-25%
CCCn1c(N)c(C(=O)CSc2nnc3n2CCCCC3)c(=O)n(C)c1=O	3%
CCN1C(=O)[C@H]2[C@@H](c3ccc(-c4cccc(Cl)c4)c(OC)c3)N3CCC[C@@]3(C(=O)OC)[C@H]2C1=O	21%
Cc1ccc(-c2nnc(CSc3nc(C(C)C)nc4sc(C)c(C)c34)o2)cc1	-8%
O=C(N/N=C/C(Cl)=C/c1ccc([N+](=O)[O-])cc1)C(=O)Nc1cccc(C(=O)O)c1	?
CC(=O)Nc1ccc(NC(=O)C2CCN(S(=O)(=O)c3ccc4c(c3)CCCC(=O)N4)CC2)cc1	3%
Cc1cn(C(=O)c2cccc(Br)c2)c(C)n1	11%
O=C(NNC(=O)c1ccc(Br)s1)c1cccc(Cl)c1	-13%
CCOc1ccc2nc(SCC#N)c(C#N)cc2c1	10%
COc1ccc(C2=NOC(C(=O)NCc3cccnc3)C2)cc1 (stereo not drawn)	5%
COc1ccccc1N1CCN(CC(O)COc2ccc(C)c(C)c2)CC1 (stereo not drawn)	-4%
COc1cc(C(=O)NCC(=O)NCCN2C(=O)S/C(=C\c3ccc4c(c3)OCO4)C2=O)cc(OC)c1OC	-8%
COc1ccc(NC(=O)C2=C(C)Nc3nc(SCc4ccccc4C)nn3C2c2ccc(Br)cc2)cc1 (stereo not drawn)	1%
COc1ccc(-c2noc(CCC(=O)N3CCN(c4cccc(C)c4)CC3)n2)cc1	-12%
COc1cccc(CNC(=O)CCC2CCCN(C(=O)c3ccc(F)c(Cl)c3)C2)c1 (stereo not drawn)	-1%
CC1CCN(C(=O)CCNC(=O)c2ccccc2Cl)CC1	16%
Oc1ccccc1CN1CCN(C(c2ccccc2)c2ccccc2)CC1	-5%
O=C(Nc1ccc(F)cc1F)c1cccc2c1C(=O)N(C1CCCCC1)C2	-18%
Cc1ccccc1-c1nnc(-c2ccc(Br)cc2)o1	-2%
CCN(CC)C(=O)c1ccc(CS(=O)(=O)c2ccc(OC)cc2)o1	14%
Cc1nn(CC(=O)Nc2nccs2)c(C)c1[N+](=O)[O-]	-3%
Next structures follow.
SMILES	VDR inh
Cc1cc(Cl)ccc1C(=O)C1CCCN(C(=O)CCN2CCCO2)C1 (stereo not drawn)	12%
CCCN(C(=O)/C=C/c1ccc(S(=O)(=O)N(CC)CC)cc1)C1CCS(=O)(=O)C1 (stereo not drawn)	-11%
Cc1ccc(CNC(=O)c2ccc3c(c2)N(Cc2cccc(Cl)c2)C(=O)CS3)cc1	-7%
COc1ccc(N2CCN(C(=O)COc3ccccc3C#N)CC2)cc1	16%
CCN(CC)S(=O)(=O)c1ccc(NC(=O)Cn2c(=O)sc3ccccc32)cc1	5%
CCOc1ccc(C(=O)Nc2nc(C)c(C(=O)OC)s2)cc1	17%
Cc1ccc(-c2nnc(SCC(=O)Nc3sc(C)c(C)c3C#N)n2C)cc1	-6%
CCn1nc(C)c(/C=N/NC(=O)Cc2ccc(Cl)cc2)c1C	-1%
Nc1nonc1-c1nc2ccccc2n1CC(=O)N/N=C\c1ccc(-c2ccc(Cl)cc2)o1	9%
CC(C)CC(=O)NC(=S)Nc1cc(C(F)(F)F)ccc1N1CCOCC1	-8%
O=C(NCC1CCCO1)C1CCN(C2CCN(C(=O)CC3CCCC3)CC2)CC1 (stereo not drawn)	7%
CC1CCCC(NC(=O)COc2ncnc3ccccc23)C1C (stereo not drawn)	7%
O=C(CCNC(=O)C1CCN(S(=O)(=O)c2ccccc2)CC1)NCc1ccc(Cl)cc1	-28%
O=C(CCCn1c2ccccc2c(=O)c2ccccc21)Nc1ccc(F)cc1Cl	-10%
C=CCNC(=O)CCC(=O)NNc1nc2ccccc2c2nc(-c3ccccc3)nn12	-2%
O=C(c1nc2ncccn2n1)N1CCN(c2ccc(F)cc2)CC1	-6%
CCc1ccc(NC(=O)c2ccccc2Br)cc1	-3%
Cc1ccccc1OCCC(=O)N(CC(C)C)c1c(N)n(Cc2ccccc2)c(=O)[nH]c1=O	2%
CN(C(=O)COn1nnc2ccc(S(=O)(=O)N3CCOCC3)cc21)c1ccccc1	-9%
NC(=O)Nc1ccc(Oc2ncc(C(F)(F)F)cc2Cl)cc1	2%
CCOC(=O)c1c(-c2ccc(C)o2)csc1NC(=S)NC(=O)c1ccc(F)cc1	1%
CC(C)C1C2=C(CC(C)(C)CC2=O)ON1c1ccccc1 (stereo not drawn)	-10%
O=C(c1ccc(Br)o1)N1CCN(c2ccccn2)CC1	-8%
O=C(Nn1nnnc1Nc1ccccc1)C12CC3CC(CC(C3)C1)C2	24%
Cn1c(=O)c2c(nc(N3CCCC3)n2CC(O)CO)n(C)c1=O (stereo not drawn)	21%
Cc1cc(C)n(CC(C)(O)c2ccccc2)n1 (stereo not drawn)	-21%
NS(=O)(=O)c1ccc(NC(=S)NC(=O)c2cccnc2)cc1	6%
O=[N+]([O-])c1ccc(S(=O)(=O)NCC2CC3CCC2C3)cc1 (stereo not drawn)	-1%
Cc1cc(/C=C2\C(=N)N3C(SCc4ccccc4)=NSC3=NC2=O)c(C)n1Cc1ccccc1	20%
N#CC(C#N)=Cc1cnc(N2CCN(c3ccccc3)CC2)s1	-15%

Some of these compounds in order of the VDR inh value, ascending.
smiles	VDR inh
N#CC(C#N)=Cc1cnc(N2CCN(c3ccccc3)CC2)s1	-15%
CN(C(=O)COn1nnc2ccc(S(=O)(=O)N3CCOCC3)cc21)c1ccccc1	-9%
Cc1ccccc1OCCC(=O)N(CC(C)C)c1c(N)n(Cc2ccccc2)c(=O)[nH]c1=O	2%

Later entries
SMILES	VDR inh
Cn1c(=O)c2nc(NCc3ccccc3)sc2n(C)c1=O	12%
CCc1cc(=O)[nH]c(-n2[nH]c(-c3ccccc3)cc2=O)n1	12%
CCCCNC(=O)Nc1cc(C(=O)OC)ccc1C	3%
O=C(/C=C/c1cccs1)Nc1ccncc1	-8%
Cc1nc(-c2cccc(NC(=O)C3CCCCC3)c2)cs1	2%
Cc1ccc(C(=O)NC2CCN(CCCC(=O)c3ccc(F)cc3)CC2)cc1	15%
O=C(CSc1nc2sc3c(c2c(=O)n1-c1ccccc1)CCCC3)N/N=C/c1ccc(C(=O)O)cc1	-11%
Cc1cc2cc(CCNC(=O)C(C)C)c(=O)[nH]c2cc1C	10%
CCc1nnc(NC(=O)CSc2nnc(-c3ccccc3O)o2)s1	-16%
CCOc1ccc(CNC(=O)C2CCN(S(=O)(=O)N3CCCCC3)CC2)cc1	12%
COc1ccc(S(=O)(=O)N2CCCOC2CNC(=O)C(=O)NC2CCCC2)cc1 (stereo not drawn)	-6%
Cc1ccc(Nc2nc(N)c([N+](=O)[O-])c(N3CCOCC3)n2)cc1	-9%
Cc1cc(C)nc(Nc2nc3ccccc3s2)n1	-4%
CC(C)(C)C1CCc2c(sc3ncn(N)c(=N)c23)C1 (stereo not drawn)	-9%
CCCCC1CCC(/C(N)=N/O)CC1 (stereo not drawn)	11%
COCc1cc(C)nc2sc(C(=O)NC3CCCCC3)c(N)c12	-10%
CCCCCCNC(=O)C(C(=O)OCC)C1CCCCC1 (stereo not drawn)	-7%
O=C(Nc1ccnn1C1CCN(C(=O)Cc2ccccc2F)CC1)C1CC1	0%
O=C(O)c1c(-c2ccccc2)c(-c2ccccc2)nc2ccccc12	-12%
